MLL AF4-AF9 inh: MLL-AF4/AF9 protein interaction inhibition. AlphaScreen, biotin-AF4 peptide binding to FLAG-AF9. inhibition, % at 10 µM. 350,000 tested, 0.47% active;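 active means every replicate reaching a set inhibition limit, whatever the replicate mean, cut at about 25% in these data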;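 further: 0% = plate neutral control median and 100% = total signal loss; the record names both 10 and 1 µM as test concentration; the first replicate is given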
Target sequence (P42568 whole entry, looked up): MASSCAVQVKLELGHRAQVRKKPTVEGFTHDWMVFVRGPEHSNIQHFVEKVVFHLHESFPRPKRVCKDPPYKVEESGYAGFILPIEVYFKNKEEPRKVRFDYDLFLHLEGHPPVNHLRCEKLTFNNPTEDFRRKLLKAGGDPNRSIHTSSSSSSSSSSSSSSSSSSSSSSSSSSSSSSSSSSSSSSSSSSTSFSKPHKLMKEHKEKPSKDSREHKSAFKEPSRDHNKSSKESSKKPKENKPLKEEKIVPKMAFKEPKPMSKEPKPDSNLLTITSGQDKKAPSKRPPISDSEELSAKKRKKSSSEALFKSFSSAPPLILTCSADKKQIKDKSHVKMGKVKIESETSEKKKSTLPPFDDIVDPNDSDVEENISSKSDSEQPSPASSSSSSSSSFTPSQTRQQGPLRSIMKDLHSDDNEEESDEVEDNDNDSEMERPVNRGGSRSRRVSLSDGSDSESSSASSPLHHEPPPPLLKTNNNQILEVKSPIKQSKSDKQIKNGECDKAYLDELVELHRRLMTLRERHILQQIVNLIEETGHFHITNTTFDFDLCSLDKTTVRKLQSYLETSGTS
* marks the source's active call; other numbers are inactive results. The list is partial; count on the stated rates, not on these rows.

SMILES	MLL AF4-AF9 inh
CO[C@H]1CN(C)C(=O)c2cc(C#N)ccc2OC[C@H]2O[C@@H](CC[C@@H]2OC)CCN(C)C(=O)[C@H]1C	-4.2
COc1ccc(NC(=O)Nc2ccc3c(c2)[C@@H]2C[C@H](CC(=O)NCc4ccc5c(c4)OCO5)O[C@@H](CO)[C@@H]2O3)cc1	-0.2
Cn1c(=O)c2ccccc2n(C)c1=O	2.0
C[C@@H]1CN([C@H](C)CO)S(=O)(=O)c2ccc(-c3cncnc3)cc2O[C@H]1CN(C)C	-3.7
C[C@@H](O)C#Cc1ccc([C@H]2[C@@H](CO)N3CCCCN(C(=O)Nc4ccccc4)C[C@H]23)cc1	-8.5
C/C=C/c1cnc2c(c1)C(=O)N([C@@H](C)CO)C[C@@H](C)[C@@H](CN(C)C(=O)NCCC)O2	0.8
COc1ccccc1S(=O)(=O)N(C)C[C@H]1Oc2cc(/C=C/c3ccccc3)ccc2S(=O)(=O)N([C@H](C)CO)C[C@@H]1C	4.5
C[C@@H]1CCCCO[C@H](CN(C)S(=O)(=O)c2ccc(Cl)cc2)[C@@H](C)CN([C@@H](C)CO)C(=O)c2cc(NC(=O)Nc3ccc4c(c3)OCO4)ccc2O1	-0.6
N#C[C@H]1[C@@H](c2ccc(C#Cc3cccc(F)c3)cc2)[C@@H](CO)N1C(=O)C1CCOCC1	-1.6
O=C(Nc1ccc(F)cc1)N1CC(=O)N2[C@H](CO)[C@@H](c3ccc(C#CC4CC4)cc3)[C@@H]2C1	5.8
Cc1ccccc1-c1ccc([C@H]2[C@@H](CO)N3CCCCN(C(=O)NC4CCCC4)C[C@@H]23)cc1	-2.3
COc1cc(C(=O)C(=O)N2CCN(c3ccccc3)CC2)cc(OC)c1OC	2.2
O=C(NCCc1ccc2c(c1)OCCO2)c1cc(S(=O)(=O)N2CCCC2)ccc1Br	-0.7
C[C@@H]1CN([C@H](C)CO)S(=O)(=O)c2ccc(-c3cncnc3)cc2O[C@@H]1CN(C)Cc1ccncc1	1.3
CCCNC(=O)C[C@H]1C[C@@H]2c3cc(N(C)C)ccc3O[C@@H]2[C@H](CO)O1	-3.0
CCCNC(=O)N1[C@@H]2Cn3c(ccc(-c4cccc(OC)c4)c3=O)[C@H]1[C@@H](C(=O)NCC)[C@@H]2CO	-0.2
C[C@H]1CN([C@@H](C)CO)C(=O)c2cccc(NC(=O)C3CCCCC3)c2O[C@H]1CN(C)C(=O)Nc1cccc2ccccc12	0.6
C[C@@H]1CN([C@H](C)CO)C(=O)c2cc(-c3cncnc3)cnc2O[C@H]1CN(C)C(=O)Nc1ccc2c(c1)OCO2	0.0
COCC(=O)N1C[C@@H](C)[C@@H](OC)CN(C)C(=O)c2ccc(NC(=O)c3cc(C)on3)cc2OC[C@H]1C	-0.3
C[C@H]1CN([C@@H](C)CO)C(=O)c2cc(NC(=O)CCCN(C)C)ccc2O[C@@H]1CN(C)S(=O)(=O)c1cn(C)cn1	-1.5
C=CCNC(=O)[C@H]1[C@@H]2C(=O)O[C@@H](c3ccccc3)[C@@H](c3ccccc3)N2[C@@H](c2ccc(O)cc2)[C@]12C(=O)Nc1ccc(C#CCCO)cc12	1.6
COc1ccc(S(=O)(=O)N(C)C[C@H]2Oc3c(NC(=O)c4cc(C)nn4C)cccc3C(=O)N([C@@H](C)CO)C[C@H]2C)cc1	-17
CO[C@@H]1CC[C@@H]2CCN(C)C(=O)[C@H](C)N(C)C(=O)c3cccc(C#N)c3OC[C@@H]1O2	1.7
C[C@@H]1CN([C@H](C)CO)C(=O)c2cc(NC(=O)CCC(F)(F)F)ccc2O[C@@H](C)CCCCO[C@H]1CN(C)S(=O)(=O)c1cccs1	-2.5
Cc1ccc(-c2ccc([C@@H]3[C@@H](CO)N4C(=O)CN(C(=O)c5ccccc5)C[C@H]34)cc2)cc1	5.3
More compounds:
SMILES	MLL AF4-AF9 inh
O=C(Nc1ccc(F)cc1)N1CC(=O)N2[C@@H](CO)[C@H](c3ccc(-c4cccc(F)c4)cc3)[C@@H]2C1	-8.4
O=C(C[C@@H]1CC[C@@H](NC(=O)Nc2ccc(C(F)(F)F)cc2)[C@@H](CO)O1)NCc1cccc(F)c1	0.5
O=C(C1CCOCC1)N1C[C@@H]2[C@H](c3ccccc31)[C@H](CO)N2Cc1ccccc1Cl	1.1
CC(C)NC(=O)N1CCCCN2[C@H](CO)[C@@H](c3ccc(Br)cc3)[C@H]2C1	-4.3
OC[C@@H]1CN(Cc2cccnc2)C[C@H](n2cnc3c(N4CCOCC4)ncnc32)O1	-2.8
Cc1ccccc1S(=O)(=O)NCC[C@H]1CC[C@@H](NC(=O)C2CCC2)[C@@H](CO)O1	-3.9
CNc1cncc(-c2ccccc2NC(C)=O)n1	-0.6
CCOC(=O)C1=CCN(S(=O)(=O)c2ccccc2Cl)C1c1cccc(Br)c1 (stereo not given)	1.0
C[C@@H]1CN([C@@H](C)CO)C(=O)c2cc(C#CC3(O)CCCC3)cnc2O[C@@H]1CN(C)Cc1cccnc1	-7.8
CC1(C(=O)NS(=O)(=O)c2cccc(Cl)c2)CCN1C(=O)C1(c2ccc(Cl)cc2)CCC1 (stereo not given)	-3.4
CC(C)NC(=O)N[C@@H]1C=C[C@@H](CC(=O)NCCCN(C)C)O[C@@H]1CO	-2.3
CCNC(=O)C[C@H]1CC[C@H]2[C@@H](COc3ccc(NS(=O)(=O)c4ccccc4C)cc3C(=O)N2C)O1	-0.9
COc1ccc(CN(C)C[C@@H]2OCc3cn(nn3)CCCC(=O)N([C@H](C)CO)C[C@@H]2C)cc1	0.2
COC(=O)C[C@H]1C=C[C@@H](NS(=O)(=O)c2ccccc2F)[C@H](CO)O1	-0.9
CCCNC(=O)N1[C@@H]2Cn3c(ccc(-c4ccccc4OC)c3=O)[C@H]1[C@@H](C(=O)NCC)[C@@H]2CO	-1.2
COC(=O)[C@@H]1[C@@H](CO)[C@@H]2Cn3c(ccc(-c4ccc(F)cc4)c3=O)[C@@H]2N1Cc1ccccn1	-1.4
COc1ccc(S(=O)(=O)N(C)C[C@H]2Oc3cc(C#CC4CCCC4)ccc3S(=O)(=O)N([C@H](C)CO)C[C@H]2C)cc1	-5.8
Cc1noc(C)c1NC(=O)N(C)C[C@@H]1Oc2c(NC(=O)NC3CCCCC3)cccc2C(=O)N([C@@H](C)CO)C[C@H]1C	-1.0
O=C(C1CCOCC1)N1C[C@@H]2[C@H](c3ccccc31)[C@@H](CO)N2Cc1ccccc1Cl	1.8
COc1cc(C(=O)N2CCCC(c3cc(C(=O)NCc4ccc(F)cc4)no3)C2)cc(OC)c1C (stereo not given)	0.0
COc1ccc(NC(=O)Nc2cccc3c2O[C@@H](CN(C)C(=O)Nc2ccccc2)[C@H](C)CN([C@@H](C)CO)C3=O)cc1	-0.6
C/C=C/c1ccc([C@@H]2[C@H](CO)N3CCCCN(C(=O)Nc4ccc(F)cc4)C[C@@H]23)cc1	1.1
C[C@@H]1CN([C@H](C)CO)C(=O)c2cc(NS(=O)(=O)c3cccs3)ccc2O[C@@H](C)CCCCO[C@@H]1CN(C)Cc1ccncc1	3.2
COc1ccc(-c2coc3c(C(=O)NCC(C)C)cccc23)c(C)c1	-3.1
Cc1noc(C)c1S(=O)(=O)N(C)C[C@@H]1Oc2ccc(NC(=O)Nc3ccc(F)cc3)cc2CC(=O)N([C@H](C)CO)C[C@H]1C	-2.4
Continued:
SMILES	MLL AF4-AF9 inh
COc1ccccc1-c1cccc(-c2nc(C(=O)Nc3nccs3)cc3c2[C@@H](CCO)N(C(=O)CC2CC2)C3)c1	-2.1
COc1ccc(NC(=O)Nc2cccc3c2O[C@H](CN(C)C(=O)Nc2ccc(F)cc2)[C@@H](C)CN([C@@H](C)CO)C3=O)cc1	0.7
CCCC(=O)N1CC2(CN(C(=O)Nc3cccc(F)c3)C2)c2c(n(C)c3cc(OC)ccc23)[C@@H]1CO	1.1
CC(C)NC(=O)N(C)C[C@H]1OCCCC[C@@H](C)Oc2ccc(NS(=O)(=O)c3cn(C)cn3)cc2C(=O)N([C@@H](C)CO)C[C@@H]1C	-1.7
C[C@H](CO)N1C[C@H](C)[C@@H](CN(C)Cc2cncnc2)Oc2ncc(C#C[C@@H](C)O)cc2C1=O	-2.3
CCC(=O)Nc1ccc2c(c1)C(=O)N(C)C[C@@H](OC)[C@@H](C)CN(C(=O)C1CC1)[C@@H](C)CO2	-0.4
C[C@@H]1CN([C@@H](C)CO)C(=O)c2cc(NC(=O)Nc3cccc4ccccc34)ccc2O[C@@H](C)CCCCO[C@H]1CN(C)S(=O)(=O)c1ccc(F)cc1	-4.6
CCc1nc2ccc(C(=O)N3CCN(c4ccccc4)CC3)cn2c1N(C)CCC(C)C	8.5
COc1cccc(S(=O)(=O)Nc2ccc3c(c2)OC[C@H](C)N(C(=O)Cc2cccnc2)C[C@H](C)[C@@H](OC)CN(C)C3=O)c1	-2.5
CN(C)S(=O)(=O)c1ccc(NC(=O)Cn2nc(-c3ccc4c(c3)OCCO4)ccc2=O)cc1	1.7
CO[C@@H]1CN(C)C(=O)c2cc(NC(=O)C3CC3)ccc2OC[C@H](C)N(Cc2cc(F)ccc2F)C[C@H]1C	-24
O=C(C[C@H]1CC[C@@H]2[C@H](COC[C@@H](O)CN2C(=O)Nc2cc(Cl)cc(Cl)c2)O1)NCC1CC1	1.2
Cc1noc(C)c1S(=O)(=O)Nc1cccc2c1O[C@@H](CN(C)S(=O)(=O)c1cccs1)[C@@H](C)CN([C@@H](C)CO)C2=O	-0.1
O=C(CC1CC1)N1[C@H](CO)[C@H]2c3ccccc3N(S(=O)(=O)c3ccc(F)cc3)C[C@H]21	1.7
C[C@@H]1CN([C@@H](C)CO)C(=O)c2cc(C#CC3CC3)cnc2O[C@H]1CN(C)S(C)(=O)=O	-4.2
COc1ccc(-c2ccc(CN3C(CC(C)C)C(=O)N(Cc4cn(Cc5ccco5)nn4)CCS3(=O)=O)cc2)cc1 (stereo not given)	-4.9
CC(C)NC(=O)N(C)C[C@H]1Oc2cc(C#Cc3cccc(F)c3)ccc2S(=O)(=O)N([C@H](C)CO)C[C@@H]1C	-1.6
COc1ccc(CN(C)C[C@@H]2OCCCC[C@H](C)Oc3ccc(NC(=O)c4ccccc4)cc3C(=O)N([C@@H](C)CO)C[C@H]2C)cc1	7.0
O=C(NCc1ccncc1)c1csc([C@@H]2C[C@H](O)[C@@H](CO)O2)n1	-1.8
CC=Cc1ccc2n(c1=O)C[C@@H]1[C@@H](CO)[C@H](C(=O)NCC3CC3)[C@H]2N1C(=O)C1CC1 (mixture of isomers)	-0.7
C[C@@H]1CN([C@H](C)CO)C(=O)c2cc(NC(=O)c3ccncc3)ccc2O[C@@H]1CN(C)Cc1ccc(Oc2ccccc2)cc1	3.2
CC1(C)CC(=O)C=C(C2CC2)C1=O	-2.7
Cc1ccc(S(=O)(=O)Nc2ccc3c(c2)C(=O)N([C@@H](C)CO)C[C@H](C)[C@H](CN(C)Cc2ccc(C(=O)O)cc2)O3)cc1	-2.2
C[C@@H]1CN([C@@H](C)CO)C(=O)c2cc(C#CC3(O)CCCC3)cnc2O[C@H]1CN(C)Cc1ccccc1	-0.8
COc1cc(NC(=O)C2(C)CCCN2C)cc(OC)c1OC (stereo not given)	-3.7

A draw from above in order of number of heavy atoms, highest first.
SMILES	MLL AF4-AF9 inh
O=C(C[C@H]1CC[C@@H]2[C@H](COC[C@@H](O)CN2C(=O)Nc2cc(Cl)cc(Cl)c2)O1)NCC1CC1	1.2
O=C(CC1CC1)N1[C@H](CO)[C@H]2c3ccccc3N(S(=O)(=O)c3ccc(F)cc3)C[C@H]21	1.7
CC1(C)CC(=O)C=C(C2CC2)C1=O	-2.7

Quoted from the listing.
Result of COc1ccc(NC(=O)Nc2cccc3c2O[C@H](CN(C)C(=O)Nc2ccc(F)cc2)[C@@H](C)CN([C@@H](C)CO)C3=O)cc1 under MLL AF4-AF9 inh: 0.7
Result of C[C@@H]1CN([C@@H](C)CO)C(=O)c2cc(C#CC3CC3)cnc2O[C@H]1CN(C)S(C)(=O)=O under MLL AF4-AF9 inh: -4.2

Carrying on.
SMILES	MLL AF4-AF9 inh
O=C(Nc1cccc(F)c1)N1C[C@H]2[C@@H](c3ccccc31)[C@H](CO)N2C(=O)c1ccccc1F	-0.8
O=C(C1CCOCC1)N1C[C@@H]2[C@H](c3ccccc31)[C@@H](CO)N2Cc1ccccc1F	-1.2
CN(CC(=O)Nc1cc(S(=O)(=O)N2CCCC2)ccc1Cl)Cc1nc2ccccc2c(=O)[nH]1	-0.7
C[C@H](CO)N1C[C@H](C)[C@H](CN(C)C)Oc2ccc(NC(=O)C3CC3)cc2CC1=O	-1.0
COc1ccc(C#Cc2ccc([C@@H]3[C@@H](CO)N4CCCCN(C(=O)Nc5ccccc5)C[C@@H]34)cc2)cc1	-11
COCC#Cc1ccc2c(c1)O[C@@H](CN(C)Cc1ccncc1)[C@H](C)CN([C@@H](C)CO)S2(=O)=O	-0.4
CC(=O)N[C@H]1CC[C@H](CCNC(=O)C2CCCC2)O[C@H]1CO	0.4
C[C@@H]1CN([C@@H](C)CO)C(=O)Cc2cc(NC(=O)c3ccncc3)ccc2O[C@H]1CN(C)Cc1ccc(C(=O)Nc2ccccc2N)cc1	-13
O=c1[nH]cncc1OCc1ccccc1	0.6
C[C@H](CO)N1C[C@H](C)[C@@H](CN(C)S(C)(=O)=O)OCCCC[C@H](C)Oc2ccc(NC(=O)Nc3ccccc3)cc2C1=O	-1.4

Given with each value named: four of the compounds above
compound: CN(CC(=O)Nc1cc(S(=O)(=O)N2CCCC2)ccc1Cl)Cc1nc2ccccc2c(=O)[nH]1
  MLL AF4-AF9 inh = -0.7

compound: O=c1[nH]cncc1OCc1ccccc1
  MLL AF4-AF9 inh = 0.6

compound: O=C(C1CCOCC1)N1C[C@@H]2[C@H](c3ccccc31)[C@@H](CO)N2Cc1ccccc1F
  MLL AF4-AF9 inh = -1.2

compound: CC(=O)N[C@H]1CC[C@H](CCNC(=O)C2CCCC2)O[C@H]1CO
  MLL AF4-AF9 inh = 0.4
